Arbovirus anti: blocks arbovirus infection; arbovirus infection cell-based antiviral screen; inhibition, % at 10 µM; 200,000 compounds, 0.37% hits;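 active = inhibition from about 30%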;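 also: bluetongue infection of BSR cells; cell survival read as ATP light after 72 h; 0% = infected wells without compound and 100% = uninfected wells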
Mtb bLac sens: beta-lactam sensitization of Mtb H37Rv; inhibition, % at 25 µM; 330,000 compounds, 0.27% hits; M. tuberculosis H37Rv growth with meropenem, percent inhibition; hits of this screen are not shown here;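 active = about 74% or more and at least 40 points above the plate without the antibiotic, then above 30% in a dose series; inconclusive = first-round hits that could not be retested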;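 also: growth measured after seven days incubation then overnight dye step; 0% = bacteria only wells and 100% = bacteria with antibiotic; twin plates without the antibiotic show which effects depend on it; some results filed as inactive read as strong as hits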
YopH inh: YopH (Yersinia) phosphatase inhibition; fluorescence Ex485/Em525; inhibition, %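 (about 10 µM by stock and volumes)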; 140,000 compounds, 0.16% hits;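 active = inhibition of 50% or more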;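 also: controls were vehicle for no effect and minimum signal wells for full effect; inactives centre near -20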
Mtb growth: M. tuberculosis H37Rv growth inhibitors, H37Rv strain (AID 1626). M. tuberculosis H37Rv growth inhibition; higher % means a stronger effect. 220,000 compounds, 0.95% hits. one-dose inhibition, % at 10 µM; IC50 in µM for titrated hits;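 active = confirmed in a dose series; inconclusive = inhibition above 80% but not taken into the dose series; inactive = below 80% or under 30% at every dose of the series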;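 also: bacteria incubated seven days before Alamar blue readout; 0% = bacteria only wells and 100% = bacteria with antibiotic wells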
RecA intein inh: blocks M. tuberculosis RecA intein splicing | P9WHJ3 | cell-free RecA intein splicing, fluorescence | inhibition, %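 (about 9 µM by stock and volumes)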 | 290,000 compounds, 0.75% hits; in the data active = inhibition above about 30%; inconclusive = no clear call, values can overlap the other calls;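 also: 0% = vehicle wells and 100% = reference inhibitor control wells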
Target sequence (P9WHJ3 whole entry, looked up): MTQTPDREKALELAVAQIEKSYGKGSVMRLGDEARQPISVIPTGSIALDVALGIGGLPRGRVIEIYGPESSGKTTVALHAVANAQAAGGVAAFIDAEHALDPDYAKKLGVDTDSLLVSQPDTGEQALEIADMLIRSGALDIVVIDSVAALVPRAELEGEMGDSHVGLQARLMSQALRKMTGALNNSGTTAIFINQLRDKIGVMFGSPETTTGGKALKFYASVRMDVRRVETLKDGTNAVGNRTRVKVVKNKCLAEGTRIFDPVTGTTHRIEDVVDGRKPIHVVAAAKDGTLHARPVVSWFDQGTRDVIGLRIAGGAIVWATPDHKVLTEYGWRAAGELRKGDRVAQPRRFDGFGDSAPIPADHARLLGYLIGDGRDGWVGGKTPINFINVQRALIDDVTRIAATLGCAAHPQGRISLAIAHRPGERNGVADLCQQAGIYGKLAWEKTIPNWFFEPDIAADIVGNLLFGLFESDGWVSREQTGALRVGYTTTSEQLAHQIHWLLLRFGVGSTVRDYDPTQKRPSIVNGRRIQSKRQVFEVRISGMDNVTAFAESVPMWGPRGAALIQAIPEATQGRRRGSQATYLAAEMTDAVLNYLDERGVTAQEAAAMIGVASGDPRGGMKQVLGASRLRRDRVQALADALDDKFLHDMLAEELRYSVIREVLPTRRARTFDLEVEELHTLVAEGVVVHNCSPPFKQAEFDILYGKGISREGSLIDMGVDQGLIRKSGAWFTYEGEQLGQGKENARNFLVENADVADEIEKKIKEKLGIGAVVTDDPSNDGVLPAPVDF
Arbovirus anti repeat: recorded beside Arbovirus anti, whose call it bears; inhibition, %; measured here: 10K subset replicate screen; many hits read low in the repeat;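 first of two repeat runs on a subset; 0% = infected and 100% = uninfected wells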
The depositor's hits bear a star; ? = inconclusive; · = not tested or not shown. An excerpt. The share of hits here may be higher or lower than overall.

SMILES	Arbovirus anti	Mtb bLac sens	YopH inh	Mtb growth	RecA intein inh	others
CCC(C(=O)Nc1ccccc1F)n1nc(C)c2c(C)n(-c3ccccc3)nc2c1=O (stereo not drawn)	·	-6	·	·	2.6
CCc1ccc(N2C(=O)CC(=O)NC2=O)cc1	·	0	·	·	0.6
COc1cc(C2/C(=C(\O)c3ccc4c(c3)CC(C)O4)C(=O)C(=O)N2Cc2ccco2)ccc1O (stereo not drawn)	5	0	-23	2%	-3.1
O=C(CCCl)Nc1ccc(S(=O)(=O)NCc2ccco2)cc1	·	-7	·	0%	-2.5
CCC1C(=O)N=C(SCC(=O)Nc2ccc(Br)cn2)NC1=O (stereo not drawn)	1	3	·	0%	-1.6
CSc1ccc(/C=N\NC(=O)CC(=O)NC(C)C)cc1	3	4	·	5%	-1.3
COn1c(SCC(=O)N(C)C)nc2ccccc2c1=O	13	-7	-25	-9%	-1.5
Cc1cccc(CNCCc2c[nH]c3ccccc23)c1	·	2	·	·	1.1
O=S(=O)(c1ccc2nc(Nc3ccccc3)ccc2c1)N1CCCCC1	·	17	·	·	11
CCC(=O)c1ccc(OCC(=O)OCC(=O)N2CCc3ccccc32)cc1	·	21	·	·	-0.6
Cc1ccc(NC(=O)Cc2c(C(=O)O)n(C)c3ccccc23)cc1F	6	-2	·	-5%	-4.0
CCOC(=O)c1c(N2C(=O)Nc3ccccc3N2O)sc2c1CCCCC2	15	-6	-44	-9%	0.5
Cc1cc2ncn(-c3ncnc4sc5c(c34)CCCC5)c2cc1C	-6	15	-3	-6%	0.8
CC(C(=O)Nc1ncn[nH]1)N1C(=O)c2ccccc2C1=O (stereo not drawn)	2	-4	-15	-5%	2.2
O=C(CCc1ccccc1)NNC(=O)Cc1ccc(Cl)cc1	-6	-1	·	-4%	-1.6
C/C(=N\OC(=O)NC(C)C)c1sc(-c2ccc(Cl)cc2)nc1C	-6	40	-14	24%	3.3
Cc1ccc(C(=O)COc2ccccc2N2C(=O)c3ccccc3C2=O)cc1	-7	4	-22	1%	-2.1
Cn1c(CCNC(=O)c2ccco2)nc2cc(NC(=O)c3ccccc3Cl)ccc21	·	-3	·	·	1.0
C=CCOc1cccc(/C=N/NC(=O)C(=O)NCc2ccco2)c1	-25	58	-20	·	-2.9
CCCNc1cc(C)c(C#N)c2nc3ccccc3n12	-3	-10	-11	0%	·
CC(=O)Nc1ccc(S(=O)(=O)NCCC(=O)Nc2cc(C)ccn2)cc1	·	-3	·	·	-1.9
O=C(O)/C=C/C(=O)Nc1ccc(Cl)cc1C(=O)c1ccccc1	·	-2	·	-12%	10
CCN(CC)CCCC1(CN)OCCc2ccccc21 (stereo not drawn)	-12	-5	10	-19%	1.4
CCCCNC(=O)NNC(=O)c1cc(C)on1	·	-6	·	-9%	0.8
CNC(=O)NNC(=O)c1csc(Cc2c(Cl)sc3ccc(Cl)cc23)n1	·	-3	·	2%	2.6
More results.
SMILES	Arbovirus anti	Mtb bLac sens	YopH inh	Mtb growth	RecA intein inh	others
O=[N+]([O-])c1ccccc1OCCCn1cnc2ccccc21	7	·	·	2%	-1.2
Clc1ncc2[nH]cnc2n1	4	9	·	1%	1.3
O=C(NNS(=O)(=O)c1ccc(Br)cc1)c1ccncc1	7	-1	-56	-2%	-3.0
CC(C)[C@H](NC(=O)N1CCn2c1nc1ccccc12)C(=O)NCC1CCCO1 (stereo partly drawn)	·	5	·	·	1.7
N#Cc1c(NC(=O)c2cccc(S(=O)(=O)Nc3ccc(C(=O)O)cc3)c2)sc2c1CCCC2	·	-2	·	1%	3.4
O=C(CSc1nc2ccccc2c(=O)n1-c1ccc(F)cc1)Nc1ccc(N2CCOCC2)cc1	-30	41	2	6%	-1.3
Cn1c(=O)c2c(n(Cc3ccccc3)c1=O)NC(=O)C2CC(=O)NCc1cccc(Cl)c1 (stereo not drawn)	6	4	8	6%	2.5
CCOc1ccc2nc(SCc3ccc(F)cc3)sc2c1	22	8	-9	13%	3.4
COc1cccc(C(=O)Nc2ccc(S(=O)(=O)N3CCN(C)CC3)cc2)c1	·	3	·	·	-1.3
CC(C)CN1CCC(CN(C)Cc2nc(-c3cnccn3)no2)CC1	1	-9	·	3%	-0.7
O=C(Nc1ccccc1Cl)NC1(C(=O)N2CCCCC2)CCCCC1	12	-2	32	5%	-0.7
CCc1ccccc1NC(=S)NCc1cccn1C	0	1	-16	0%	-3.3
CCOC(=O)c1c(NS(=O)(=O)c2ccc(Br)cc2)sc2c1CCC2	-4	89	-40	20%	5.4
CCOC(=O)c1[nH]c2ccccc2c1NC(=O)c1ccc(S(=O)(=O)N2CCCC2)cc1	-2	5	-25	·	1.2
COCCn1c(C)cc(C(=O)CSc2n[nH]c(N)n2)c1C	3	-11	34	-10%	-0.9
COC(=O)c1ccc(OCCOc2ccccc2)cc1	5	3	-16	6%	3.7
COc1ccc(N2CCN(C3CCCN(Cc4cccc(C(C)=O)c4)C3)CC2)cc1 (stereo not drawn)	·	-1	·	·	-0.9
COc1ccc(C(C)=O)cc1COC(=O)c1ccc(S(=O)(=O)N(C)C)cc1	1	-8	·	-4%	-0.3
CC(Oc1ccccc1)C(=O)N1CCC2(CC1)Oc1ccc(Cl)cc1C(=O)C21CC(c2ccccc2)=NO1 (stereo not drawn)	·	-4	·	-2%	4.6
C/C(=C/CCC(C)C1CCC2(C)C3CCC4C(C)(C)C(=O)CCC4(C)C3=CCC12C)C(=O)O (stereo not drawn)	·	·	·	12%	17
O=C1NCC(COCc2ccccc2)O1 (stereo not drawn)	-7	-2	-28	2%	·
COCCNC(=O)c1ccc(Cn2c(SCC(=O)NCC3CCCO3)nc3ccc(Br)cc3c2=O)cc1 (stereo not drawn)	·	12	·	·	-1.6
CC(=O)c1ccc(N2CCN(C(=O)C3(S(=O)(=O)c4ccc(Cl)cc4)CC3)CC2)cc1	-6	21	-43	1%	-1.8
O=C(/C=C/c1ccccc1[N+](=O)[O-])N1CCOCC1	·	-2	·	·	-6.0
O=C(O)Cc1ccc(NC(=O)c2ccc(NC(=O)C3CC3)cc2)cc1	·	-10	·	·	-2.0

Grouped by structure: the entries above with fluorine.
SMILES	Arbovirus anti	Mtb bLac sens	YopH inh	Mtb growth	RecA intein inh	others
CCC(C(=O)Nc1ccccc1F)n1nc(C)c2c(C)n(-c3ccccc3)nc2c1=O (stereo not drawn)	·	-6	·	·	2.6
Cc1ccc(NC(=O)Cc2c(C(=O)O)n(C)c3ccccc23)cc1F	6	-2	·	-5%	-4.0
O=C(CSc1nc2ccccc2c(=O)n1-c1ccc(F)cc1)Nc1ccc(N2CCOCC2)cc1	-30	41	2	6%	-1.3
CCOc1ccc2nc(SCc3ccc(F)cc3)sc2c1	22	8	-9	13%	3.4

The results go on.
SMILES	Arbovirus anti	Mtb bLac sens	YopH inh	Mtb growth	RecA intein inh	others
O=C(NCCN1CCOCC1)c1cccc(S(=O)(=O)N(Cc2ccccc2)c2ccccc2)c1	·	0	·	·	0.6
Cc1ccc(S(=O)(=O)CC(O)COc2ccc(F)cc2Cl)c(C)c1 (stereo not drawn)	-1	-1	·	7%	-3.0
CN1CCN(S(=O)(=O)c2ccc(NC(=O)c3ccccc3Cl)cc2)CC1	·	-2	·	·	0.5
O=C(O)C1CCCCC1C(=O)Nc1cc(C(F)(F)F)ccc1Cl (stereo not drawn)	14	0	·	-12%	-5.4
COc1ccc(C(=O)N2CCNC(=O)C2CC(=O)Nc2ccc(C)cc2)cc1 (stereo not drawn)	0	0	·	-1%	0.3
O=C(O)C1CCCCC1C(=O)NCCc1c[nH]c2ccccc12 (stereo not drawn)	6	-4	-1	-10%	-10
CC(C)CCOc1cccc(OCC(=O)N(C)C2CCS(=O)(=O)C2)c1 (stereo not drawn)	2	-2	-44	7%	·
CNC(=O)c1cc(S(=O)(=O)N(C)C)ccc1Cl	0	-13	6	9%	-3.8
Cc1ccc2c(c1)N1C(=O)c3ccccc3C1C1=C(CC(C)(C)CC1=O)N2 (stereo not drawn)	0	-10	-27	-3%	1.3
O=C(Nc1cccc2cccnc12)c1ccc(Br)cc1Br	·	-2	·	·	1.5
COc1ccc(/C=N\NC(=O)c2ccccc2Br)cc1COc1c(F)c(F)cc(F)c1F	·	5	·	·	10
Cc1nnc(NC(=O)CSc2ccc([N+](=O)[O-])cn2)s1	1	9	·	-3%	-8.7
COc1cccc(CCc2nnc(N)s2)c1	·	-8	·	·	-1.3
COc1ccc(S(=O)(=O)N2CCOCC2)cc1N=Nc1sc(N)nc1-c1ccccc1	-9	11	-14	7%	-1.1
Oc1ccc(-c2nc3ccccc3s2)c(O)c1	·	90	·	55%	-7.3
Cc1ccc(NC2=NC(c3ccc(F)cc3)n3c(nc(C)cc3=O)N2)c(C)c1 (stereo not drawn)	·	0	·	-14%	-1.2
CC(NC(=O)c1ccco1)C(=O)OCc1cccc(Cl)c1 (stereo not drawn)	2	11	-36	-9%	·
COC(=O)c1c(NC(=O)CSc2nnnn2-c2ccc3c(c2)OCO3)sc(C)c1C	5	1	3	-3%	-4.6
CCc1ccc2oc(C(=O)NCC(c3ccc(OC)cc3)N3CCCCC3)c(C)c2c1 (stereo not drawn)	·	99	·	·	-0.4
O=C1/C(=C/c2cccc(Br)c2)SC(=S)N1/N=C/c1cc([N+](=O)[O-])ccc1O	·	0	·	1%	-3.2
COc1ccc(NC(=O)C(C)N2C(=O)c3ccccc3C2=O)cc1S(=O)(=O)N1CCOCC1 (stereo not drawn)	4	0	·	7%	-2.0
O=C(c1c(F)cccc1F)N(Cc1ccccn1)C1CC1	0	-5	-15	3%	0.7
Cc1cc(N(C)C)cc(C)[n+]1[O-]	1	0	-35	-12%	-0.2
CC(=O)Nc1cc(NC(=O)CCCC(=O)O)ccc1Cl	3	-1	-38	1%	-1.3
Cc1occc1C(=O)NN1C(=O)C2C3CCC(O3)C2C1=O (stereo not drawn)	8	9	1	-2%	-0.3

Four structures out of the list, sorted by length of the SMILES, smallest number first.
SMILES	Arbovirus anti	Mtb bLac sens	YopH inh	Mtb growth	RecA intein inh	others
COc1cccc(CCc2nnc(N)s2)c1	·	-8	·	·	-1.3
O=C(c1c(F)cccc1F)N(Cc1ccccn1)C1CC1	0	-5	-15	3%	0.7
O=C(O)C1CCCCC1C(=O)Nc1cc(C(F)(F)F)ccc1Cl (stereo not drawn)	14	0	·	-12%	-5.4
CN1CCN(S(=O)(=O)c2ccc(NC(=O)c3ccccc3Cl)cc2)CC1	·	-2	·	·	0.5

Carrying on:
SMILES	Arbovirus anti	Mtb bLac sens	YopH inh	Mtb growth	RecA intein inh	others
NC(=O)CC(NC(=O)c1ccc(Br)cc1)c1ccc(NC2CCCCC2)c([N+](=O)[O-])c1 (stereo not drawn)	·	-2	·	·	0.2
CCn1c(CC(=O)Nc2ccccc2C)nnc1SCC(=O)NC1=NCCS1	·	-9	·	·	0.6
O=C(Nc1ccc(O)c(-c2nc3ccccc3s2)c1)c1cccs1	-5	2	-9	-7%	-9.3
COc1cc(C(=O)NCc2cc(C)nc3ccccc23)cc(OC)c1OC	4	-6	·	-8%	-1.3
N#C/C(=C\c1cn[nH]c1-c1ccccc1)C(=O)NC1CCCCCC1	-18	36	-27	1%	-1.6
CC(=O)c1sc2nc(-c3ccc(C)cc3)c3c(c2c1N)CCCC3	-17	82	-8	15%	-26
CC(=O)Nc1ccc(S(=O)(=O)N2CCN=C2SCc2cccc(C)c2)cc1	·	?	·	·	3.0
COc1cc(C(=O)NCC(=O)OCC(=O)N2CCc3ccccc32)cc(OC)c1OC	4	-3	·	3%	-0.2
CC12CN3CC(C)(CN(C1)C3c1c[nH]c3ccccc13)C2=O (stereo not drawn)	5	-2	·	-2%	1.7
CCCCC(=O)Nc1c(-c2ccc(OC)c(OC)c2)c(=O)c2ccccc2n1C	·	-1	·	·	0.2
O=C(CCN1CCOCC1)NNC(=O)Nc1cccc(Cl)c1	·	-5	·	·	-1.0
CCN(CCNS(=O)(=O)c1ccc2c(c1)oc(=O)n2C)c1ccccc1	3	3	-43	-2%	-1.9	Arbovirus anti repeat=-5
O=c1[nH]c(=S)n(-c2ccc(Br)cc2)c(O)c1C=Nc1ccc(N2CCOCC2)cc1	-11	0	-12	-2%	-7.7
Clc1ccc(-c2ccc(C=Nc3ccc(N4CCOCC4)cc3)o2)cc1	-11	96	-34	7.5µM*	-5.6
O=c1cc(-c2ccccc2)nc2nc(CCc3ccccc3)[nH]n12	0	78	-27	4%	0.3
CCOC(=O)c1c(O)c2ccccc2n(C)c1=O	-2	7	·	2%	-3.0
O=C1NC2(CCCCO2)CO1 (stereo not drawn)	·	-4	·	·	14
Cc1ccc(S(=O)(=O)N/N=c2\sc3ccccc3n2C)cc1	-4	1	-13	4%	1.3
COc1cccc(CN2CC(C(=O)NCCCn3cccn3)CCC2=O)c1 (stereo not drawn)	·	-2	·	·	0.8
COc1ccc(C(=O)Nc2cnc3ccccn3c2=O)cc1	-6	-10	·	-8%	-0.8
Cc1c(C(=O)N2CCCc3ccccc32)oc2ccccc12	·	14	·	·	0.6

Screens as filed in PubChem.
